VACV Venus inh: inhibitors of vaccinia virus (Venus reporter). Vaccinia virus Venus reporter expression, fluorescence. Potency, µM (top dose mostly 36.5 µM), for the others: at the top dose activity change, negative = inhibition, actives largely listed as inhibitors. 330,000 tested, 0.46% active; active means well fitted inhibition curve with a large enough effect; inconclusive means small, poorly fitted or top-dose-only effect; inactive means no such curve, though single readings can be large or run the other way; tested in A549 cells; also: nearly all actives have a fitted effect of over 30% in size; inactives centre near -10
Vaccinia mCherry: inhibitors of vaccinia virus infection (mCherry reporter signal). Vaccinia virus mCherry reporter infection, fluorescence; about a quarter of the inactives have no number. Potency, µM (doses to about 36.5 µM), without a hit: at the highest dose activity change, negative = inhibition, actives largely listed as inhibitors. 310,000 tested, 0.63% active; active = well fitted inhibition curve with a large enough effect; inconclusive = small, poorly fitted or top-dose-only effect; inactive = no such curve, though single readings can be large or run the other way; tested in A549 cells; also: nearly all actives have a fitted effect of over 35% in size; inactives centre near -10
* = called active by the depositor; i = inactive; ? = inconclusive; nt = no result given; & = joins results of further samples; [ ] = another dose, or the depositor's remark. % is scaled to controls: 0 for no effect and ±100 for the full control effect; potency is read from the fitted curve at half-maximal effect.

structure	VACV Venus inh	Vaccinia mCherry
CC(NC(=O)COC(=O)c1ccc(Br)o1)c1ccccc1 (stereo not given)	-9%	-10%
Cc1ccc(-c2cc(N)on2)cc1	?	?
Cc1c(C(=O)N(C)Cc2ccc(F)cc2)sc(=O)n1Cc1ccc(Cl)c(Cl)c1	-6%	5%
CSc1nsc(N/N=C/c2ccccc2)c1C#N	-6%	-10%
COc1ccc(Cl)cc1NC(=O)c1cc(=O)c2cc(C)cc(C)c2o1	4%	-7%
NC(c1ccccc1)c1csc(Nc2ccc(C(F)(F)F)cn2)n1 (stereo not given)	?	?
CSc1nc2ccc3nc(NC(=O)C4COc5ccccc5O4)sc3c2s1 (stereo not given)	?	i
COc1cccc(C(=O)NCC(=O)N2CCN(c3ccc(C(F)(F)F)cn3)CC2)c1	-12%	i
COCCN(Cc1nnc(-c2cccs2)o1)C(=O)CN1C(=O)NC2(CCCCC2)C1=O	-17%	-22%
Cc1cccc(-c2noc(-c3ccc4c(c3)OCO4)n2)c1	-6%	i
Cc1ccccc1CS(=O)(=O)CCC(=O)NCCCN1CCOCC1	-1%	-8%
Cc1ccc(/C=C2/C(=O)N(c3ccccc3)C(=S)N2C)o1	0%	-15%
CC(/C=C1\N=C(SCc2ccccc2)SC1=O)=C\c1ccccc1	-13%	-21%
COc1cccc(CNC(=O)c2oc3c(c2C)-c2nn(Cc4cccc(Cl)c4)cc2CC3)c1	-10%	-18%
CCCN(CC(=O)Nc1ccccc1OC)C(=O)Cc1ccccc1F	-2%	0%
Cc1cccc(C(=O)N2CCc3cc(-c4csc(NC(=O)CN5CCCC5)n4)ccc32)c1	-17%	-18%
O=C1NC[C@@H](Cc2ccc(O)cc2)N(CC2CCCCC2)C1=O	-4%	i
CC(C)(C(=O)c1ccccc1)/[N+]([O-])=C/c1ccc(Br)cc1	-12%	-10%
Cc1cccc(N2C(=O)/C(=C\c3ccc(C(=O)O)cc3)c3ccccc3C2=O)c1	0%	-8%
Cc1ccc(CNC(=O)c2ccc(CNc3c(N4CCCC4)c(=O)c3=O)cc2)cc1	-2%	-4%

Three successive entries already listed, for reference:
structure	VACV Venus inh	Vaccinia mCherry
COc1cccc(C(=O)NCC(=O)N2CCN(c3ccc(C(F)(F)F)cn3)CC2)c1	-12%	i
COCCN(Cc1nnc(-c2cccs2)o1)C(=O)CN1C(=O)NC2(CCCCC2)C1=O	-17%	-22%
Cc1cccc(-c2noc(-c3ccc4c(c3)OCO4)n2)c1	-6%	i

Carrying on:
structure	VACV Venus inh	Vaccinia mCherry
CC1=NN(c2ccccc2)C(=O)C1C(=S)SC1CC(=O)NC1=O (stereo not given)	-9%	i
Cn1nc(C(F)(F)F)c2cc(C(=O)Nc3ccc(Cl)cc3)sc21	9%	-15%
O=C(CCCN1C(=O)/C(=C/c2cccs2)SC1=S)NNC(=O)c1ccc(F)cc1	-18%	-17%
CC(C)CC(NC(=O)C1CCCN1C(=O)OC(C)(C)C)C(=O)NCC(N)=O (stereo not given)	-10%	-22%
CCOC(=O)C1=C(C)OC(=CC=Cc2ccccc2)C1=O	-3%	i
Cc1cccc(CC2(O)C(=O)Nc3ccccc32)n1 (stereo not given)	-1%	i
COC1=NC(=C(c2ccccc2)c2ccccc2)OC1=O	18%	3%
Cc1ccccc1NC(=O)C(c1ccccc1)C1CCCC1 (stereo not given)	-11%	i
CCCC(c1nnnn1C(C)(C)C)N1CCN(C(=O)c2ccco2)CC1 (stereo not given)	2%	-3%
Cc1cccc(NC(=O)Nc2cccc(C#N)c2)n1	-20%	i
CC(=O)Nc1ccc(OC(=O)N(C)c2ccccc2)cc1	-17%	i
Cc1nc2ccc(C(=O)Nc3ccc4c(c3)OCC(=O)N4)cn2c1N(C)C(=O)CCc1ccccc1	4%	4%
CN1CCN(/C=C2\SC(=S)NC2=O)CC1	-8%	nt
COc1ccc(NS(=O)(=O)c2cn(C)c(=O)n(C)c2=O)c(OC)c1	-6%	-15%
COC1=C(Nc2ccccc2)C(=O)C(OC)=C(Nc2ccccc2)C1=O	-5%	?
CC(=O)N1CCN(c2ccccc2NC(=O)COc2cc(C)cc(C)c2)CC1	-10%	-16%
COCCn1c(SCC(=O)Nc2ccc(C(C)=O)cc2)nnc1-c1ccco1	-14%	7%
CCCCN(C(=O)CC1CCCC1)c1c(N)n(CC(C)C)c(=O)[nH]c1=O	-15%	i
COCCOC(=O)c1c(N)n(CCCN2CCOCC2)c2nc3ccccc3nc12	-4%	-11%
Cc1c(C(=O)NC2CCCCC2)sc2ncnc(NCCN(C)C)c12	-19%	i
COc1cccc(C(NC(C)=O)c2nc(-c3csc4ccccc34)cs2)c1 (stereo not given)	3%	i
C=CCC(=O)N1CCCC(CO)(Cc2ccc(F)cc2F)C1 (stereo not given)	-16%	-6%
Cc1nc2nc(SCC(=O)Nc3ccccc3Cl)nn2c(C)c1Cc1ccccc1	-4%	-3%
O=C(c1ccc(-c2ccccc2Cl)o1)N1CCN(c2ccccc2O)CC1	-24%	?
Cc1ccnc2nc(C(=O)N3CCN(c4ccc(F)cc4)CC3)nn12	-11%	nt
Cc1cc2nc(-c3ccc(=O)[nH]c3)n(Cc3ccccc3)c2cc1C	-17%	-2%
CCN1/C(=C2/OC(=S)N(C)C2=O)Sc2ccccc21	-13%	-12%
COC(=O)C1CCN(C(=O)CN2C(=O)c3ccccc3S2(=O)=O)CC1	-15%	i
O=C(Nc1nc2ccccc2[nH]1)C1CC(=O)N(c2ccc3c(c2)OCCO3)C1 (stereo not given)	-13%	nt
NC(=O)c1cccc(N)c1	-17%[127 µM]	-26%[127 µM]
CN(C)c1ccc(C(=S)N2CCOCC2)cc1Br	0%	-6%
Cc1ccc(C(=O)NCC(c2cccnc2)N2CCc3ccccc3C2)cc1C (stereo not given)	-19%	-2%
CSc1c(-c2ccccc2)nc2ccc(Cl)cc2c1C(=O)O	1%	2%
Cc1ccc(S(=O)(=O)c2nc(C)c3c(n2)CCC3)cc1	1%	nt
CCC(=O)NCCc1nc(-c2ccccc2)no1	0%	-12%
Cc1ccc(C)c(N2CCN(C(=O)CCS(=O)(=O)c3ccc4c(c3)oc(=O)n4C)CC2)c1	-23%&-10%	?
Cc1cc(C)cc(NS(=O)(=O)c2ccc(NC(=O)C3CCCCC3C(=O)O)cc2)c1 (stereo not given)	1%	-11%
Cc1ccc(NC(=O)c2cc3c(Cl)nc4ccc(C)cc4c3s2)c(Cl)c1	-26%	-20%
C#CCOc1c(Cl)cc(/C=C2/C(=O)ON=C2C)cc1OC	-6%	-4%
Cc1ccc(Cl)cc1NC(=O)C1COc2ccccc2O1 (stereo not given)	-6%	i

Continued.
structure	VACV Venus inh	Vaccinia mCherry
COc1ccc(NC(=O)CN2CCN(CC(=O)Nc3ccccc3F)CC2)cc1OC	-11%&-11%	-5%
COC(=O)c1c[nH]c(=O)c2ccccc12	-1%	i
Cc1snc2sc(C(=O)c3ccc(Br)cc3)c(N)c12	3%	nt
O=C(NCc1ccc(-c2nc3ccccc3s2)cc1)c1ccc(Br)o1	-1%	-4%
O=C(/C=C/c1cccc([N+](=O)[O-])c1)OCC(=O)c1ccccc1	-11%	-28%
Cc1cnc(-n2ncc(C(=O)NCC3CCCN(C)C3)c2C)nc1-c1cccs1 (stereo not given)	-11%	-10%
Cc1nc(-c2cccc(NC(=O)COc3ccc(Cl)cc3)c2)cs1	-21%	-7%
O=C(N/N=C/c1cc2ccccc2nc1Cl)[C@H]1C[C@@H]1c1ccccc1	-15%	i
CC(CCc1ccccc1)NC(=O)CCNS(=O)(=O)c1ccccc1 (stereo not given)	-2%	-5%
COc1ccc(CCN(Cc2cccs2)S(=O)(=O)c2ccc(-n3cnnn3)c(OC)c2)cc1OC	-11%	-2%
COc1ccc2c(-c3ccccc3)cc(N3CCOCC3)nc2c1	-24%	nt
C/C(=N\NC(=O)C1CC1)c1cccs1	-6%	-10%
CC(NC(=O)c1cccs1)c1nnc(SCc2ccc(Cl)cc2Cl)n1C (stereo not given)	-12%	i
C=CC[C@@H](CC(=O)N[C@@H](CO)Cc1ccccc1)C(=O)N[C@H](COC(=O)[C@H](CC=C)CC(=O)OC(C)(C)C)Cc1c[nH]c2ccccc12	?	?
COc1ccc(NC(=O)CSc2nc(-c3ccco3)cc(C(F)(F)F)n2)cc1OC	?	?
C[C@H](CO)N1C[C@H](C)[C@@H](CN(C)C(=O)c2cccnc2)Oc2ncc(Br)cc2C1=O	-5%	?
CCc1ccc(N2CC(c3nc4ccccc4n3Cc3ccccc3C)CC2=O)cc1 (stereo not given)	-17%	-17%
COc1ccc(C(=O)c2ccc3oc(-c4ccc(OC)cc4)c(C#CCCO)c3c2)cc1	?	i
NS(=O)(=O)c1ccc2nc(NC(=O)Nc3ccc(F)cc3)sc2c1	-1%	?
Cc1noc(C)c1C(=O)N1CCC1(C)C(=O)NS(=O)(=O)c1ccccc1Cl (stereo not given)	8%	4%
CC(C)Sc1ccc([N+](=O)[O-])cc1C(=O)Nc1ccncc1	-8%[7.34 µM]	i[7.34 µM]
CC(C)(C)c1ccc(OCCNC(=O)c2ncn[nH]2)cc1	-12%	-16%
O=C(C1CCN(S(=O)(=O)c2ccccc2)CC1)N1CCN(c2ccccc2)CC1	-16%	-6%
COc1ccc(C(C)C)cc1S(=O)(=O)N1CCC(C(=O)N2CCN(C)CC2)CC1	-14%	-12%
O=c1c2nnn(Cc3ccccc3)c2ncn1C/C=C/c1ccccc1	-6%	-2%
COc1ccc(C2c3c(-c4ccccc4O)n[nH]c3C(=O)N2Cc2ccco2)cc1 (stereo not given)	-2%	-23%
CCCOc1ccc(F)cc1-c1cc(C(=O)NCc2cccs2)[nH]n1	?	?
COCCNC(=S)N/N=C(\C)c1ccccc1OC	-16%	-21%
c1nnnn1C12CC3CC(CC(C3)C1)C2	-11%	nt
Cn1c(=O)[nH]c(=O)c2c1nc(N1CCOCC1)n2CC(O)COc1ccc2ccccc2c1 (stereo not given)	-16%	i
O=C(Nc1nc(-c2ccc3c(c2)OCCO3)cs1)c1ccc(Br)o1	-19%	i
CCN(CC)CCC(=O)N1C/C(=C/c2ccccc2)C(=O)/C(=C\c2ccccc2)C1	?	?
O=C(/C=C/c1ccccc1[N+](=O)[O-])OCC(=O)N1CCN(c2ccccc2)CC1	-15%	-9%
Cc1cc(C)n(S(=O)(=O)c2ccc3oc(=O)ccc3c2)n1	1%	-12%
Cc1ccc(CN2CCCn3nc(C(=O)NCC(C)c4ccccc4)cc3C2=O)cc1 (stereo not given)	-21%	-24%
COc1ccc(N2C(=O)C(Cl)=C(Nc3ccccc3OC)C2=O)cc1	-1%	-12%
CC(=O)Nc1cc2c(cc1Cl)-c1ccc(F)cc1C2O (stereo not given)	-7%	?
CCCNC(=O)c1sc2c(c1C(=O)Nc1ccccn1)CCCC2	-11%	-19%
COCCCNC(=O)Cn1nc(N2CCN(c3ccccc3)CC2)ccc1=O	-5%	-1%
NC(c1csc(Nc2ccc(C(=O)NCCO)cc2)n1)C1CCCCC1 (stereo not given)	-10%	i

The closing 5 compounds of the section above open the next one:
structure	VACV Venus inh	Vaccinia mCherry
COc1ccc(N2C(=O)C(Cl)=C(Nc3ccccc3OC)C2=O)cc1	-1%	-12%
CC(=O)Nc1cc2c(cc1Cl)-c1ccc(F)cc1C2O (stereo not given)	-7%	?
CCCNC(=O)c1sc2c(c1C(=O)Nc1ccccn1)CCCC2	-11%	-19%
COCCCNC(=O)Cn1nc(N2CCN(c3ccccc3)CC2)ccc1=O	-5%	-1%
NC(c1csc(Nc2ccc(C(=O)NCCO)cc2)n1)C1CCCCC1 (stereo not given)	-10%	i
CC1CCN(S(=O)(=O)c2ccc3ncn(CC(=O)Nc4ccccc4C(F)(F)F)c(=O)c3c2)CC1	-8%	-4%
CCOc1c2ccccc2nn1CCO	-18%	i
COc1ccc(-c2nc(O)c3cnccn23)cc1	-14%	i
COC(=O)c1cc(Cl)c(NC(=O)/C=C/c2ccc(OC)c(OC)c2)cc1OC	-18%	-21%
Cc1cc(OCC(=O)N[C@@H](Cc2c[nH]c3ccccc23)C(=O)O)c2c(C)c(C)c(=O)oc2c1	-8%	12%
Cc1[nH]c2ccccc2c1C(c1ccncc1)N1CCN(c2ccccn2)CC1 (stereo not given)	-5%	-6%
O=C1S/C(=C\c2ccccn2)C(=O)N1Cc1ccccc1F	8%	-9%
CC(=O)Nc1ccc(-c2ccnc3c2CC(C)(C(=O)Nc2cccc(C(F)(F)F)c2)O3)cc1 (stereo not given)	?	?
Cc1ccc(-n2c(SCC(N)=O)nc3c(oc4ccccc43)c2=O)cc1C	-16%	-1%
O=C(c1cncc(Br)c1)N1CCN(S(=O)(=O)c2ccccc2)CC1	2%	-3%
Cc1cccc(C(=O)N(c2ccccn2)C(C)c2ccco2)c1 (stereo not given)	2%	i
O=C1c2ccccc2C(=O)N1CCC#Cc1ccc2cc(C3(O)CCCCC3)oc(=O)c2c1	-27%	i
CCN(C[C@H]1N[C@@](CC)(C(=O)OC)[C@H]2C(=O)N(C)C(=O)[C@@H]12)C(=O)C1CCCCC1	-10%	-23%

Part of the list above, with values under each structure:
Under each structure: VACV Venus inh	Vaccinia mCherry
Cc1cccc(N2C(=O)/C(=C\c3ccc(C(=O)O)cc3)c3ccccc3C2=O)c1
    0%	-8%
Cc1ccc(CNC(=O)c2ccc(CNc3c(N4CCCC4)c(=O)c3=O)cc2)cc1
    -2%	-4%
